CtBP-E1A blk: inhibitors of CtBP/E1A interaction | AlphaScreen GST-E1A/His-CtBP binding, 1536-well; stronger effect = lower value; control for the full effect not named in the record | activity change, % (no concentration beside the values) | 340,000 tested, 0.49% active | AID 651724; in the data active means activity change below about -65%; inconclusive means about -30% to -65%; inactive means above about -30%; further: on the % scale 0 is the no-effect control and ±100 the full control effect; compound concentration not given in the record
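GST-E1A and His-tagged CtBP (125 nM each as 5X stock) were preincubated with pin-transferred compound for 2 h at 37 °C in the dark, then glutathione donor and nickel acceptor beads were added for 1 h before AlphaScreen reading.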
gsp agonist: gsp mutant agonism | Potency, µM (titrated, usually from 76.9 µM), inactives show top-dose activation (cAMP increase), usual class: activators | gsp mutant cells, cAMP HTRF, 30 min; control for the full effect not named in the record | 340,000 tested, 0.13% active; active = well fitted activation curve with a large enough effect; inconclusive = small, poorly fitted or top-dose-only effect, or another doubt; inactive = no such curve, though single readings can be large or run the other way; cell line not stated here;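 further: phosphodiesterase inhibitor Ro 20-1724 added with compounds to block cAMP breakdown; potency means the concentration at half of the fitted maximal effect; nearly all actives have a fitted effect of over 60% in size; about a fifth of the inactives were tested at one dose only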
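Cells in DMEM/10% FBS with G418 were pretreated with compounds in DMSO plus […] (300 uM stock) for 30 min at 37C. cAMP was measured by HTRF (cAMP-d2 plus anti-cAMP antibody-K) after 30 min at room temperature.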
gsp antag: antagonizes gsp, the McCune-Albright syndrome mutation; gsp-mutant cells, cAMP HTRF, 30 min; control for the full effect not named in the record; Potency, µM (doses to about 76.9 µM), for inactives: top-dose activity change, negative = inhibition, actives largely listed as inhibitors; 340,000 tested, 0.4% active; AID 624288; active = falling curve of any shape with a large fitted effect; inconclusive = falling curve, mostly with a smaller effect; inactive = flat or rising curve; cell line not stated here;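 further: intracellular cAMP measured with PDE inhibitor Ro 20-1724 present during compound exposure; potency means the concentration at half of the fitted maximal effect; on the % scale 0 is the no-effect control and ±100 the full control effect; nearly all actives have a fitted effect of over 65% in size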
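Measurement of cellular cAMP by homogeneous time-resolved fluorescence following a 30 min compound exposure at 37C. The PDE inhibitor […] was present throughout; the assay buffer was DPBS with 0.05% BSA and 0.005% Tween 20.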
Six1-Eya2 blk: Six1/Eya2 interaction inhibition; AlphaScreen GST-Six1/His-Eya2 binding, biochemical; stronger effect = lower value; control for the full effect not named in the record; 360,000 tested, 0.56% active; Q15475+O00167; activity change, % (concentration not given with the values); in the data active = activity change below about -65%; inconclusive = about -30% to -65%; inactive = above about -30%; further: on the % scale 0 is the no-effect control and ±100 the full control effect
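Six1/Eya2 binding was read as AlphaScreen signal after compounds were pinned into GST-Six1 plus His-tagged Eya2 (5X stock 250/500 nM) in pH 8.0 Tris/NaCl/TCEP buffer, beads added, then incubated 1 h, 37 C, dark.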
D2 ag: activates the human D2 dopamine receptor. 360,000 tested, 0.084% active. activation, % (no concentration beside the values). AID 624465. DiscoveRx PathHunter D2 beta-arrestin, luminescence, 90 min; 100% = 57 uM dopamine signal. P14416; in the data active = activation above about 40%; inconclusive = about 15% to 40%; inactive = below about 15%; further: compound concentration not given in the record; the text of the record calls up to 30% inactive
Target sequence (P14416 whole entry, looked up): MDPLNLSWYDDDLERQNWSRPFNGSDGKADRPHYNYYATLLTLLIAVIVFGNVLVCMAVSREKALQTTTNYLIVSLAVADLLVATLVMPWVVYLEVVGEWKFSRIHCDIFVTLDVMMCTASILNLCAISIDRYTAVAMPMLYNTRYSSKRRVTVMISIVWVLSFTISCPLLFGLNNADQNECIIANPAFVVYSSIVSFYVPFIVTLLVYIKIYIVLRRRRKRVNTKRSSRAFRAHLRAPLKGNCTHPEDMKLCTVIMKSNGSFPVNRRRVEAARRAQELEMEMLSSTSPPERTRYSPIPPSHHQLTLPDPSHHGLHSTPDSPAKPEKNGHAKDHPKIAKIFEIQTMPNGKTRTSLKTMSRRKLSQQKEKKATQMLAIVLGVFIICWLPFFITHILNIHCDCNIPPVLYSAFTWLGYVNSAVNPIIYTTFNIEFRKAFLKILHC
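Agonist mode: compounds alone added to overnight-plated D2 PathHunter cells for 90 min at 37 C, with 57 uM final dopamine (EC100) defining full response. Beta-arrestin recruitment detected by chemiluminescent reagent, read after 1 h at ambient temperature.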
D2 potentiator: potentiates the human D2 dopamine receptor allosterically; DiscoveRx D2 beta-arrestin cells, luminescence, 90 min; 100% = 57 uM dopamine signal; potentiation, % (concentration not given with the values); 360,000 tested, 0.23% active; AID 624464; P14416; active = potentiation of 50% or more; inconclusive = 30% to 50%; inactive = 30% or less;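 further: compound concentration not given in the record; tested on top of an EC20 dose of dopamine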
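PathHunter D2 cells, attached overnight at 37 deg C, received compound in DMSO plus dopamine at EC20 (50 nM final) for 90 min at 37 deg C. Beta-arrestin recruitment was read as luminescence after 1 h with detection reagent at ambient temperature.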
Active calls of the source: *; ? = inconclusive; . = not tested or not shown; [ ] = remark or other dose.

CtBP-E1A blk	gsp agonist	gsp antag	SMILES	Six1-Eya2 blk	D2 ag	D2 potentiator
-2.5	4.2%[15.4 µM]	10.1%	CC(C)(C)NC(=O)C(c1ccncc1)N(C(=O)Cn1nnc(-c2ccc(F)cc2)n1)c1ccccc1F (centres undefined)	9.6	-4.9	-6.4
-16.2	-10.0%[15.4 µM]	-1.1%	O=C(NCc1csc(-c2cccs2)n1)C1CCCCC1	11.6	-4.7	-7.3
-2.2	-11.9%	-11.0%	CC(OC(=O)CCCN=C1NS(=O)(=O)c2ccccc21)C(=O)c1ccccc1 (centres undefined)	-2.6	-2.7	-2.0
-15.6	-5.9%[15.4 µM]	10.9%	Cc1ccc(F)cc1NC(=O)CCc1c(C)[nH]c(=O)c(C#N)c1C	-1.9	-5.5	-12.2
4.2	.	.	COCCNC(=O)C1(C)CCCN(C(=O)c2ccc(F)cc2Cl)C1 (centres undefined)	4.1	1.2	3.5
5.9	-2.5%[15.4 µM]	-4.3%	CCn1c(CN2CCOCC2)nnc1SCC(=O)Nc1ccc(C(C)=O)cc1	-11.1	-5.3	-11.6
.	-19.1%	-3.0%	CCOC(=O)c1ccc(P(=O)(c2ccccc2)c2ccccc2)cc1	-0.1	7.2	-7.1
-1.9	5.7%[15.4 µM]	0.0%	CC(C)(C)c1cc(P(=O)(c2ccccc2)c2ccccc2)ccc1O	-6.4	-2.3	-1.3
11.5	?	2.9%	COc1ccc(/C=C(\C#N)C(=O)NC2CCS(=O)(=O)C2)cc1OC (centres undefined)	-7.3	10.9	-15.7
-10.8	.	.	CCC(c1nnnn1-c1ccc(OC)cc1)N1CCN(C/C=C/c2ccccc2)CC1 (centres undefined)	-13.4	11.9	-10.6
5.0	?	-0.8%	CC1CC(C)CN(CCCNC(=O)C2CCN(S(=O)(=O)N3CCCCC3)CC2)C1 (centres undefined)	1.1	-0.1	-12.8
2.8	2.8%	-15.9%	Cc1cc(C)cc(N(CCC#N)C(=O)COC(=O)CCc2c[nH]c3ccccc23)c1	-19.2	-0.8	-6.4
?	-18.2%[15.4 µM]	-5.6%	COc1ccc(NC(=O)CN(C)C(=O)c2ccc3[nH]c4c(c3c2)CC(C)CC4)cc1 (centres undefined)	-21.1	3.1	0.2
1.7	-0.1%	.	Cc1cn([C@H]2C[C@H](O)[C@@H](CNCc3ccccc3OCCCN3CCOCC3)O2)c(=O)[nH]c1=O	-1.3	-1.0	.
?	.	.	Oc1c(N=Nc2nn[nH]n2)ccc2ccccc12	-76.0*	2.5	0.3
-0.1	26.5%	-13.6%	O=C(c1cc(-c2ccncc2)nc2ccccc12)N1CCN(c2ccc(N3CCOCC3)nn2)CC1	-2.5	-0.6	-4.1
0.0	-10.9%	3.3%	COc1cc(CNc2nc3ccccc3s2)cc(OC)c1OC	-9.1	-0.3	-8.3
16.7	-6.0%[15.4 µM]	13.8%	CCc1ccc(-c2c(C)sc(NC(=O)C3CCC3)c2C#N)cc1	-11.4	0.6	-1.4
12.4	-45.2%[inhibitor]	1.7%	Cc1c(N/C(=N/S(=O)(=O)c2ccc(F)cc2)c2ccccc2)c(=O)n(-c2ccccc2)n1C	-0.4	-1.8	3.8
-7.9	-81.0%[inhibitor]	-22.4%	Nc1nonc1-n1nnc(C(=O)N/N=C/c2cccnc2)c1CSc1ccccc1	0.4	5.9	5.7
.	-16.0%	-5.9%	CCc1ccc2oc(=O)cc(CN3CCN(Cc4ccccc4)CC3)c2c1	-5.0	-4.1	-25.4
-2.6	-22.8%	-2.9%	c1ccc(NC2=NCCN2CC2CCCCC2)cc1	8.3	-3.1	-22.7
11.7	.	.	CC(=O)NCCNC(=O)C1Cc2c(-c3ccc(Cl)cc3)ccnc2O1 (centres undefined)	7.6	-0.3	-3.8
-8.6	16.3%	2.1%	O=C(CSc1nnnn1-c1ccccc1)NCCCN1CCCC1=O	-1.5	-2.5	-9.6
-13.8	4.5%	1.3%	COc1cccc(NC(=O)COC(=O)CCCc2c[nH]c3ccccc23)c1	-13.0	-0.3	-10.8
-8.7	-19.4%	7.3%	O=C(/C(=C(\O)c1ccccc1)c1ncc[nH]1)c1ccccc1	-2.0	-5.0	-6.5
42.1	28.4%	-16.1%	O=S(=O)(Nc1nccs1)c1ccc2c(c1)OCCO2	22.3	-1.2	-8.1
-16.8	-27.9%	-13.0%	O=C(/C=C/c1ccc([N+](=O)[O-])cc1)NCCSc1ccccc1	-15.3	-1.6	1.3
1.6	-29.7%	0.5%	COc1cccc(N2C(=NC(=O)CCc3ccccc3)SC3CS(=O)(=O)CC32)c1 (centres undefined)	1.1	0.5	-11.2
-0.5	?	-0.2%	O=C(CCCCCNc1nc(=S)[nH]c2ccccc12)NCCc1c[nH]c2ccccc12	?	1.0	-19.4
0.0	-11.0%[15.4 µM]	.	Cc1cccc(NC(=O)CSc2nnc(Cc3ccccc3)o2)c1	-2.6	-4.3	-27.5
0.0	1.1%	-24.2%	Cc1nc2sc(-c3ccccc3)cc2c(=O)n1-n1cccc1	9.6	-0.5	3.8
-2.0	-0.4%	16.5%	CCOc1cc(C2c3c(oc4cc(C)c(Cl)cc4c3=O)C(=O)N2Cc2ccco2)ccc1O (centres undefined)	0.3	-2.1	-10.3
.	-2.7%	12.0%	Cc1ccc(NC(=O)CCCc2nc3ccccc3c(=O)[nH]2)c(Cl)c1	2.1	-2.8	-5.8
-0.4	3.9%	-0.4%	CCOC(=O)c1ccc(N2C(=O)c3n[nH]c(C)c3C2c2ccccn2)cc1 (centres undefined)	3.1	-4.9	-7.3
-11.1	.	.	CC(=O)Nc1cc(-c2cccc(C(=O)NCCN(C)C)c2)cn2c(-c3ccc(C(C)=O)cc3)cnc12	4.6	3.0	1.0
-2.9	?	3.8%	Cc1ccc(CNC(=O)C2CC(c3ccccc3[N+](=O)[O-])=NO2)o1 (centres undefined)	2.1	-6.6	0.8
4.2	-4.8%[15.4 µM]	-0.8%	Fc1ccc(-c2nnn(Cc3ccc(F)cc3Cl)n2)cc1	35.1	-2.2	-4.8
2.2	-1.0%[15.4 µM]	1.3%	COc1ccc(N2CCN(C(=O)Cc3ccc(OC)c(OC)c3)CC2)cc1	-21.3	3.7	1.4
3.0	?	9.5%	CC(C)CC(c1nnnn1CC1CCCO1)N1CCN(C2CCCC2)CC1 (centres undefined)	9.6	-2.7	-15.0
-93.0*	6.1%	?	O=C1c2ccccc2-c2onc3ccc(NCc4ccco4)c1c23	-84.9*	?	111.7*
1.6	22.9%	4.0%	Cc1ccc(-n2ncc3c2CC(C)(C)CC3NC(=O)CCN2CCCO2)cc1 (centres undefined)	3.0	-1.9	-8.3
3.1	3.0%	2.4%	Cc1ccc(C)c2nc3sc(C(=O)N4CCCc5ccccc54)c(N)c3cc12	0.3	-1.1	-14.5
-2.2	7.4%	-0.5%	c1ccc(N2CCN(Cc3ccsc3)CC2)nc1	2.6	65.6*	101.3*
7.5	8.7%	9.0%	Fc1cc(F)cc(NC(=S)NN2CCOCC2)c1	10.2	1.2	-3.3
-7.0	-55.1%[inhibitor]	5.9%	COc1cc(C(=S)N2CCCCC2)ccc1OCC(=O)N1CCCC1	-1.5	-2.5	0.7
0.0	?	-1.9%	O=C(Nc1ccccc1)C1CCCN1S(=O)(=O)c1ccc(Br)cc1 (centres undefined)	-1.4	-4.0	-24.6
-23.0	-8.4%	11.1%	N#C/C(=C\c1ccccc1)C(=O)NC(=O)Oc1ccccc1	2.3	-3.3	-9.1
?	-2.7%[15.4 µM]	12.6%	Cc1ccc(-c2cc(C(=O)NCCCN3CCOCC3)c3ccccc3n2)cc1C	?	1.5	-8.3
.	-4.4%	-2.6%	S=c1[nH]cc(-c2ccccc2)[nH]1	2.1	-2.3	-12.3

(list continues)
CtBP-E1A blk	gsp agonist	gsp antag	SMILES	Six1-Eya2 blk	D2 ag	D2 potentiator
5.0	4.7%	-14.3%	COc1ccc(CCNC(=O)C2CCN(S(=O)(=O)c3cccs3)CC2)cc1OC	5.7	-3.8	-6.7
-1.5	-58.0%[inhibitor]	-0.9%	CCCOc1c(Br)cc(C(=O)OCC(=O)NC(=O)c2cccn2C)cc1OC	-13.4	-2.2	-11.0
-9.3	4.0%	6.4%	COc1ccc(C(CNC(=O)c2cccc(S(=O)(=O)N3CCOCC3)c2)N2CCCC2)cc1 (centres undefined)	3.7	-0.8	-2.1
-4.7	-7.9%	-16.3%	COc1ccc(/C=N/NC(=O)c2ccncc2)cc1CSc1nc2ccccc2s1	-16.0	-0.1	-3.9
-12.2	16.5%	-12.4%	COc1ccc(C2=NS(=O)(=O)N(C)C(C(=O)Nc3ccc(F)cc3F)=C2)cc1	-16.1	2.3	-12.0
3.4	11.7%[15.4 µM]	-12.5%	COC(=O)c1ccc(N2CCN(C)CC2)c(NC(=O)c2cccnc2)c1	3.8	-1.7	-4.6
-13.2	27.2%	-3.0%	O=C(CCNS(=O)(=O)c1ccc(Br)cc1)NNC(=O)C1COc2ccccc2O1 (centres undefined)	-12.6	1.0	4.2

From PubChem
